AID923: qHTS Assay for Allosteric/Competitive Inhibitors of Caspase-1: Spectroscopic Profiling in AFC Spectral Region; compound fluorescence, AFC spectral region (405/520 nm); almost no hit is shown here; Potency, µM (series often up to 57.5 µM), for the others: at the highest dose fluorescence increase, hits mostly activators; 1.1% of 75,000 active; AID 923, 2007; active means well fitted activation curve with a large enough effect; inconclusive means small, poorly fitted or top-dose-only effect;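 further: potency means the concentration at half of the fitted maximal effect; 0% is about no effect; scaled to a free AFC standard on each plate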
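Titrations up to 57 uM read every 20 sec for 3 min (405/520 nm) with 50 nM caspase 1 and 5 uM Ac-WEHD-AFC, pH 7.5 HEPES buffer. Fluorescence-vs-time intercept gave baseline, scaled against on-plate AFC standard.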
A488 autofl: qHTS Assay for Spectroscopic Profiling in A488 Spectral Region. compound autofluorescence, A488 spectral region, dye equivalency; active compounds read high. max dye equivalency, M. 0.1% of 59,000 active. AID 591, 2007; active = above 10 nM dye equivalent; inconclusive = 1 to 10 nM; inactive = 1 nM or less; about half of its hits are not listed in these tables;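 further: highest value over a series up to 38 µM; compound alone in buffer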
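Intrinsic compound fluorescence is measured in 100 mM Tris buffer at pH 8.0 following 15 min incubation at room temperature. Intensities at 480 nm excitation/540 nm emission are calibrated to an on-plate A488 concentration series, giving dye-equivalent concentrations.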
TSHR ag: qHTS Assay for Agonists of the Thyroid Stimulating Hormone Receptor; Thyrotropin receptor (Homo sapiens), P16473; HEK293-CNG-TSHR cells (CNG channel as cAMP sensor), membrane potential dye, cAMP; Potency, µM (titrated, usually from 57.1 µM), for the others: at the top dose activation, hits mostly activators; 0.48% of 73,000 active; active = well fitted activation curve of enough size with the parental cells flat; inconclusive = any curve in the parental cells; inactive = parental cells flat and receptor cells flat or falling; further: potency means the concentration at half of the fitted maximal effect; % of control where 0% means no effect; weak receptor curves with flat parental cells got no call and are not listed
Target sequence (P16473 whole entry, looked up): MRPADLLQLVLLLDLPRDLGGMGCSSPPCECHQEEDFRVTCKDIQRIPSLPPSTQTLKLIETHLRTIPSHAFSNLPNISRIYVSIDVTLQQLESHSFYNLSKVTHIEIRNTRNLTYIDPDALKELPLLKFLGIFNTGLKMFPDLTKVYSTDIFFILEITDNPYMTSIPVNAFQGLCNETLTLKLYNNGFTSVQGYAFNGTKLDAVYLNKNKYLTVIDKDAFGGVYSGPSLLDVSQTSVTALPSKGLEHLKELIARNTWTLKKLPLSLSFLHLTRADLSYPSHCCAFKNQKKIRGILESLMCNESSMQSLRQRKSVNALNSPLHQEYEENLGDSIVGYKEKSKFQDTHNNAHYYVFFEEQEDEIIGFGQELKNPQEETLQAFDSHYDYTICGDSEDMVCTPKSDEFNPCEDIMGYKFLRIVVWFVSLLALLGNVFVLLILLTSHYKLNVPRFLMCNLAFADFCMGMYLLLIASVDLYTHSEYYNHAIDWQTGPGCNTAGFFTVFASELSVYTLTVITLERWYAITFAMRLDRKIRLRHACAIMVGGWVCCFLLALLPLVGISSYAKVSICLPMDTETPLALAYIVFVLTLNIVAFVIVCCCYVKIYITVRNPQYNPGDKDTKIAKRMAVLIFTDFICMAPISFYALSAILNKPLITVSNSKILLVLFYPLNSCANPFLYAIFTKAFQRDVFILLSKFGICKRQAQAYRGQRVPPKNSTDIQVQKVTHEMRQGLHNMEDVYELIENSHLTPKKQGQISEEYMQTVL
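HEK 293 cells stably expressing TSHR and a cAMP-gated CNG channel; parental CNG-only cells as counterscreen. Cells preloaded 60 min with membrane potential dye plus 100 uM RO 20-1724, then compound 30 min; fluorescence read at 590 nm.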
A647 fluor: qHTS Assay for Spectroscopic Profiling in A647 Spectral Region; Compound fluorescence, A647 channel (570/671 nm), Tris buffer; max dye-equivalent concentration, M; 59,000 tested, under 10 active; AID 592, 2007; active means above 1 µM dye equivalent; inconclusive means 0.1 to 1 µM; inactive means 0.1 µM or less;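 further: values scaled relative to a standard on each plate; highest value over a series up to 38 µM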
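Compounds pinned into 100 mM Tris pH 8.0, 15 min at room temperature, then read with 570 nm excitation/671 nm emission filters. Fluorescence normalized to an on-plate six-point Alexa 647 standard curve, giving dye-equivalent concentration per compound concentration.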
Resorufin fluor: qHTS Assay for Spectroscopic Profiling in Resorufin Spectral Region; Compound fluorescence, resorufin region 547/598 nm, buffer; active compounds read high; max dye-equivalent concentration, M; 0.04% of 59,000 active; AID 588, 2007; active = above 10 nM dye equivalent; inconclusive = 1 to 10 nM; inactive = 1 nM or less; a few of its hits are not listed in these tables; further: highest value over a series up to 38 µM
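Dye-equivalent concentration values derive from comparing each well's 547/598 nm fluorescence against resorufin standards included on every plate. Incubation was 15 min at room temperature in 100 mM Tris, pH 8.0.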
* marks the source's active call; other numbers are inactive results; i = inactive; ? = inconclusive; · = not tested or not shown; [ ] = another dose, or the depositor's remark. An excerpt; the hit share may differ from the screen's.

SMILES | AID923 | A488 autofl | TSHR ag | A647 fluor | Resorufin fluor
Cc1oc2ccc(O)c(CN3CCOCC3)c2c1C(=O)c1ccc(Cl)cc1 | 0.8% | · | 9.6% | · | ·
O=c1cc(NCC2CCCO2)[nH]c(=O)n1-c1ccc(Cl)cc1 (centres undefined) | -0.4% | i | 6.0% | 5.2e-09 | i
CCCS(=O)(=O)N1CCC(C(=O)N2CCOCC2)CC1 | -0.5% | i | 4.8% | 2.26e-08 | i
Cn1c2ccccc2c2nnc(SC3CCOC3=O)nc21 (centres undefined) | -0.2% | i | 0.7% | 1.3e-08 | i
Cc1ccsc1CNn1cnnc1SCc1ccccc1F | 0.1% | i | · | 5e-08 | i
CCCOc1ccc(N2C(=O)CC(NCc3ccncc3)C2=O)cc1 (centres undefined) | -1.1% | i | 1.1% | 1.43e-08 | i
CCOC(=O)Cn1c(=O)oc2cc(S(=O)(=O)NCc3cccs3)ccc21 | -0.6% | · | 7.7%[11.4 µM] | · | ·
Cn1c(=O)c(-c2ccc(Cl)cc2)nc2cnc(Oc3cccc(Cl)c3)nc21 | 0.0% | i | -3.5% | 1e-09 | i
COCCNc1nc(C)nc2c1nc(-c1ccccc1)n2CCN1CCCC1 | 0.6% | · | 3.3% | · | ·
CCC(CC)c1nc2cc(OC)c(OC)cc2c(=O)o1 | · | i | · | 1.4e-09 | i
CC(C)(C)c1n[nH]c(=S)n(N)c1=O | -0.2% | i | 7.3% | 3.2e-09 | i
O=C(NCc1ccccc1)c1cccc(OCC(=O)N2CCN(C(=O)c3ccco3)CC2)c1 | -0.6% | i | 2.7% | 2.88e-08 | i
COc1ccc2c(CC(=O)N3CCN(S(=O)(=O)c4cccs4)CC3)coc2c1 | -0.9% | i | 3.7% | 4e-08 | i
Cn1ncc2c(Nc3cccc(Cl)c3)nc(Nc3cccc(Cl)c3)nc21 | 5.5%[11.5 µM] | i | 6.6%[11.4 µM] | 3.76e-08 | i
COc1ccc(NC(=O)CSc2nccn2-c2ccccc2)cc1 | -1.0% | i | 5.4%[11.4 µM] | 3.6e-09 | i
O=C(Nc1ccc(N2CCCCC2)c(Cl)c1)c1ncn[nH]1 | -2.6% | i | -16.7% | 1e-09 | i
COc1cc(OC)cc(C(=O)N2CCN(C(=O)c3cccc(F)c3)CC2)c1 | 0.4% | i | 11.6% | 2.8e-08 | i
CN=C1SC(CC(=O)Nc2cccc(Cl)c2Cl)C(=O)N1C (centres undefined) | 1.2% | i | -6.2% | 1e-09 | i
O=C(C1CC1)N(Cc1ccco1)c1nc(-c2ccccc2)cs1 | 1.8% | i | · | 1e-09 | i
CCCCOC(=O)NCN1C(=O)C2C3C=CC(C3)C2C1=O (centres undefined) | 1.2% | i | -1.3% | 1e-09 | i
CC1CN(Cc2nc3c(c(=O)n(C)c(=O)n3C)n2CCCO)CC(C)O1 (centres undefined) | -1.4% | i | -20.1% | 4.25e-08 | i
O=C(Cc1cccs1)N(c1ccccc1)C1C=CS(=O)(=O)C1 (centres undefined) | -0.9% | i | 2.3% | 3.3e-09 | i
NS(=O)(=O)c1ccc(NC(=O)COC(=O)CCNC(=O)NC23CC4CC(CC(C4)C2)C3)cc1 | -2.9% | i | 30.7% | 6.53e-08 | i
COc1cc(OC)cc(C(=O)N2CCN(C(=O)COc3ccc4ccccc4c3)CC2)c1 | -0.3% | i | 11.1% | 3e-09 | i
Cc1cccc(C)c1NC(=O)C1(NC(=O)c2cnccn2)CCCCC1 | -4.9% | · | 18.3% | · | ·
CCOC(=O)c1[nH]c2cc3c(cc2c1NC(=O)CN1CCc2ccccc2C1)OCO3 | · | i | · | 2.42e-08 | i
COCCNC(=O)CN(c1ccc(C)cc1)S(=O)(=O)c1ccccc1 | 0.3% | i | 9.2% | 2.25e-08 | i
COC(=O)c1ccccc1NC(=O)NCc1cccnc1 | -0.4% | i | ? | 1e-09 | i
O=C(Nc1nnc(C2CCCC2)s1)C1CCC1 | 0.5% | i | 2.3% | 3.68e-08 | i
Nc1cc(C(=O)O)[nH]c(=O)n1 | 4.6%[11.5 µM] | i | ? | 6.4e-09 | i
Oc1ccccc1Cn1c(-c2ccccc2O)nc2ccccc21 | -0.7% | i | 10µM* | 1e-09 | i
Cc1noc(C)c1-c1nccc(-n2ccnc2)n1 | -1.2% | i | 8.0% | 1.6e-09 | i
c1ccc(Oc2cccc(CN3CCOCC3)c2)cc1 | 0.6% | · | 10.8% | · | ·
O=c1c(-c2cc(F)cc(F)c2)nc2cnc(N3CCOCC3)nc2n1C1CC1 | -1.7% | i | 3.0% | 3.81e-08 | i
Nc1nonc1C(=O)NCCN=Cc1cc(Cc2ccccc2)cc(Br)c1O | · | i | · | 1e-09 | i
O=c1c2[nH]c3ccccc3c2ncn1Cc1ccncc1 | 1.1% | i | 7.3% | 2.1e-09 | i
C/C(=C\C1CCCCC1)C(NC(=O)c1ccc(C(F)(F)F)cc1)c1ccc(-c2ccccc2)cc1 (centres undefined) | 1.3% | · | 4.4% | · | ·
CCOc1ccc(N(CCC#N)S(=O)(=O)c2ccc(OC)cc2)cc1 | 1.8% | i | ? | 1e-09 | i
O=C(CN1CCN(c2ncc(C(F)(F)F)cc2Cl)CC1)NC(=O)NCc1ccccc1 | 0.3% | i | -2.8% | 9.1e-09 | i
COc1ccc(C(=O)Nc2nc3cc(OC)c(OC)cc3c(=O)[nH]2)cc1 | -1.7% | i | -8.0% | 1e-09 | i
CCc1c(O)nc(SCC(=O)Nc2ccc3c(c2)CCC3)[nH]c1=O | 0.8% | i | ? | 2.41e-08 | i
O=C(c1cccnc1)N1CCCc2ccccc21 | -1.1% | · | 2.6%[11.4 µM] | · | ·
CC(=O)c1cn(CC(=O)NCC2CCCO2)c2ccccc12 (centres undefined) | 1.0% | i | 1.4% | 1e-09 | i
COc1ccc(CCNC(=O)C2(C)CCC(=O)N2CCC(C)C)cc1OC (centres undefined) | 0.9% | · | -5.0% | · | ·
Cn1c(=O)c2c(nc(NCC(O)CO)n2CCc2ccccc2)n(C)c1=O (centres undefined) | · | i | · | 4.5e-09 | i
CC(C(=O)Nc1ccccc1-c1ccccc1)N1CCOCC1 (centres undefined) | 0.1% | i | 5.4% | 2.06e-08 | i
O=c1c2ccccc2[nH]c(=S)n1C1CCCCC1 | -1.0% | i | 2.8% | 1e-09 | i
CCOC(=O)N1CCN(C(=O)CCc2ccc(S(=O)(=O)NCCc3ccccc3)cc2)CC1 | -1.1% | i | -9.9% | 1.82e-08 | i
CCc1ccc(CN(C)CCc2ccccn2)cc1 | -2.3% | i | ? | 1.2e-09 | i
Brc1ccc2[nH]ncc2c1 | 1.5% | i | -2.8% | 1.53e-08 | i
N#Cc1cccc(-n2nnnc2-c2ccc3c(c2)OCO3)c1 | -0.1% | i | -0.6% | 2.73e-08 | i
C/C(CCC(=O)OC[C@@H]1O[C@H](C#Cc2ccccc2)C=C[C@@H]1Oc1ccc(C)cc1)=N/OC[C@@H](O)COCc1ccco1 | 1.9%[11.5 µM] | · | 1.1%[11.4 µM] | · | ·
Cn1c(-c2ccccc2)cc(=O)c2ccccc21 | -1.1% | · | 18.8% | · | ·
Cc1ccc(S(=O)(=O)N2CCN(C(=O)CSC3CCCC3)CC2)c(C)c1 | 1.8% | i | ? | 8e-09 | i
CN(C)S(=O)(=O)c1ccc(S(=O)(=O)N(Cc2ccccn2)Cc2ccco2)cc1 | -0.5% | i | 9.1% | 1e-09 | i
CC(C)NC(=O)c1ccc2c(c1)nnn2C | 1.8% | i | 0.9% | 2.05e-08 | i
CCOc1ccc2nc(N3CCC(C(=O)N4CCN(c5ncccn5)CC4)CC3)sc2c1 | -1.5% | · | -9.0% | · | ·
Cc1ccc(-n2c(SCn3nnc4ccccc4c3=O)nnc2-c2cccnc2)c(C)c1 | 1.1% | i | -3.1%[11.4 µM] | 4.3e-09 | i
Cc1onc(-c2ccccc2)c1C(=O)N[C@@H]1C(=O)N2[C@@H]1SC(C)(C)[C@@H]2C(=O)O | · | i | · | 4.17e-08 | i
O=C1CSc2ccccc2N1Cc1ccccc1F | 1.3% | i | 20.7% | 9e-09 | i

In another format: entries from further up
Structure,AID923,A488 autofl,TSHR ag,A647 fluor,Resorufin fluor
CCOC(=O)N1CCN(C(=O)CCc2ccc(S(=O)(=O)NCCc3ccccc3)cc2)CC1,-1.1%,i,-9.9%,1.82e-08,i
CCc1ccc(CN(C)CCc2ccccn2)cc1,-2.3%,i,?,1.2e-09,i
Brc1ccc2[nH]ncc2c1,1.5%,i,-2.8%,1.53e-08,i

Remaining list, next part
SMILES | AID923 | A488 autofl | TSHR ag | A647 fluor | Resorufin fluor
CC1(C)Cc2c(C#N)c(NC3CCCCC3)nc(-c3ccco3)c2CO1 | 5.4% | · | ? | · | ·
CC(Oc1ccc(Cl)cc1Cl)C(=O)Nc1ccncc1 (centres undefined) | -1.3% | · | ? | · | ·
C[C@@H]1CN2[C@H](c3ccc(Br)cc3)[C@H](C)CC[C@H]2C(=O)O1 | -3.5%[11.5 µM] | · | ? | · | ·
COc1cccc(CNc2ccc(S(=O)(=O)Nc3nccs3)cc2)c1O | 1.3% | i | 1.4% | 6.6e-09 | i
COCCCN(C(=O)Nc1ccc(C)c(C)c1)C(C)c1ccccn1 (centres undefined) | 0.0% | · | 19.3% | · | ·
C=CCn1c(SCC(=O)c2ccc(O)c(O)c2)nnc1-c1ccccc1OC | -0.1% | i | -3.9% | 1.7e-08 | i
Cc1cnc(C(=O)Nc2cccc3ncccc23)cn1 | 2.4% | i | -4.8% | 4.8e-09 | i
CCOC(=O)c1ccc(Oc2nc(OC)nc(N(C)C)n2)cc1 | 1.3% | · | ? | · | ·
CC1(C)CNC(=O)CC(C)(C)N1O | 1.2% | · | 6.3% | · | ·
COc1ccc(C)cc1S(=O)(=O)N(C)CC(=O)NCc1ccco1 | -0.6% | i | -5.4% | 4.5e-09 | i
O=C(Nc1ccc(S(=O)(=O)NC2CCCC2)cc1)c1cnccn1 | -3.3% | i | · | 6.1e-09 | i
COc1ccc(Cn2nnnc2C(c2cc3cccc(C)c3[nH]c2=O)N2CCOCC2)cc1 (centres undefined) | -1.3% | i | 3.3% | 1e-09 | i
CCN(CC)S(=O)(=O)c1ccc2nc(CSc3nnnn3-c3ccc(O)cc3)[nH]c2c1 | 0.5% | i | 6.4% | 9.8e-09 | i
Cc1ccc2c(c1)CCCN2C(=O)c1ccncc1 | 0.9% | i | 4.1% | 1.62e-08 | i
Cc1noc(C)c1C(=O)Nc1ccccc1-c1ccccc1 | 0.7% | i | 5.9% | 2.04e-08 | i
O=C(CSc1nnc(-c2cccs2)n1-c1ccccc1)NCc1ccc2c(c1)OCO2 | -0.1% | i | · | 1.7e-08 | i
CCOc1ccc(Cl)cc1S(=O)(=O)N1CCN(c2ccc(F)cc2)CC1 | -0.6% | i | 9.3% | 2.6e-09 | i
COC(=O)[C@@H]1C[C@H]1[C@@H](NC(=O)c1ccc(Br)cc1)c1ccccc1 | -0.5% | · | ? | · | ·
CN(C)CCN1C(=O)C(=O)/C(=C(/O)c2ccc(F)cc2)C1c1ccccc1 (centres undefined) | -2.4% | i | 2.7% | 1e-09 | i
O=C(O)c1cc([N+](=O)[O-])ccc1NCCCc1ccccc1 | -3.8% | i | ? | 2.56e-08 | i
CC(C)COP(=O)(c1ccc(N(C)C)cc1)C(O)c1ccccn1 (centres undefined) | -0.2% | i | -4.6% | 1e-09 | i
c1csc(CNc2ncnc3sccc23)c1 | 0.4% | i | ? | 2.6e-09 | i

Screening data (PubChem BioAssay)
